CtBP-E1A inh – inhibitors of CtBP/E1A interaction; AlphaScreen GST-E1A/His-CtBP binding, 1536-well; hits give low values; control for the full effect not named in the record; activity change, % (test concentration not listed); 340,000 compounds, 0.49% hits; AID 651724; in the data active means activity change below about -65%; inconclusive means about -30% to -65%; inactive means above about -30%; further: on the % scale 0 is the no-effect control and ±100 the full control effect
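Steps: dispense buffer (Tris pH 8.0, NaCl 300 mM, TCEP 1 mM, BSA, Tween 20); add 5X protein mix (GST-E1A, His-CtBP, 125 nM each); pin 23 nL compound; 2 h at 37 °C, dark; add 5X beads (50 ug/mL); 1 h; read.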
TRPV1 PAM – potentiators of human vanilloid receptor 1 (TRPV1); 320,000 compounds, 0.02% hits; potentiation, % at 8.33 µM; AID 540277; TRPV1-expressing cells, Fluo-8 calcium influx, capsaicin EC20 potentiation; host cell line not named in the record; control for the full effect not named in the record; Q8NER1; active means potentiation above 80%; inconclusive means 30% to 80%; inactive means below 30%; further: 0% is about no effect
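Fluo-8 calcium influx in TRPV1-expressing cells, kinetic read (ex 480/em 520 nm). Compound added and read 3 min for agonist activity, followed by capsaicin at EC20 final and 2 min further read for enhancement.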
TRPML1 inh – blocks the human TRPML1 channel; Q9GZU1; TRPML1-inducible cells, Ca2+ dye fluorescence, FDSS; hits give low values; inhibition of EC80 agonist-evoked calcium signal; activity change, negative = inhibition, % (concentration not given with the values); 390,000 compounds, 0.02% hits; AID 624415; in the data active means activity change below about -50%; inconclusive means about -30% to -50%; inactive means above about -30%;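 further: stimulus is agonist 54-4 at its EC80 concentration; on the % scale 0 is the no-effect control and ±100 the full control effect; the text of the record puts the active cut at -80%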
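Calcium fluorescence in TRPML1-DL cells induced overnight with Tet: a 110 s read after compound pin addition, then a 110 s antagonist read after challenge with 54-4 at 4 uM final (EC80).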
TRPML1 ag – human mucolipin-1 channel agonism; Q9GZU1; TRPML1-expressing cells, Ca2+ dye fluorescence, FDSS; host cell line not named in the record; reference of the full effect not given here; activation, % (concentration not given with the values); 410,000 compounds, 0.12% hits; AID 624414; in the data active = activation above about 50%; inconclusive = about 30% to 50%; inactive = below about 30%; further: 0% is about no effect; the text of the record puts the active cut at 80%
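Cells: TRPML1-DL, 1X Tet inducer, ~16 h at 37 degrees C/5% CO2. Dye: ABD Ca8 no-wash + quencher, 45-90 min RT. Read: 10 s baseline, compound add, 110 s agonist phase; 54-4 EC80 (4uM final), 110 s antagonist phase.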
D2 PAM – potentiates the human D2 dopamine receptor allosterically. potentiation, % (test concentration not listed). DiscoveRx D2 beta-arrestin cells, luminescence, 90 min; 100% = 57 uM dopamine signal. 360,000 compounds, 0.23% hits; active = potentiation of 50% or more; inconclusive = 30% to 50%; inactive = 30% or less;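 further: compound concentration not given in the record; tested on top of an EC20 dose of dopamine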
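PathHunter beta-arrestin assay in DiscoveRx D2 cells. Compounds were added with an EC20 of dopamine (50 nM final) for 90 min at 37 deg C. Luminescence was read 1 h after detection reagent, with 57 uM dopamine as the EC100 control.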
Six1-Eya2 inh – Six1/Eya2 interaction inhibition; AlphaScreen GST-Six1/His-Eya2 binding, biochemical; hits give low values; control for the full effect not named in the record; activity change, % (no concentration beside the values); 360,000 compounds, 0.56% hits; AID 651725; in the data active = activity change below about -65%; inconclusive = about -30% to -65%; inactive = above about -30%; further: on the % scale 0 is the no-effect control and ±100 the full control effect
Target sequence (O00167 whole entry, looked up): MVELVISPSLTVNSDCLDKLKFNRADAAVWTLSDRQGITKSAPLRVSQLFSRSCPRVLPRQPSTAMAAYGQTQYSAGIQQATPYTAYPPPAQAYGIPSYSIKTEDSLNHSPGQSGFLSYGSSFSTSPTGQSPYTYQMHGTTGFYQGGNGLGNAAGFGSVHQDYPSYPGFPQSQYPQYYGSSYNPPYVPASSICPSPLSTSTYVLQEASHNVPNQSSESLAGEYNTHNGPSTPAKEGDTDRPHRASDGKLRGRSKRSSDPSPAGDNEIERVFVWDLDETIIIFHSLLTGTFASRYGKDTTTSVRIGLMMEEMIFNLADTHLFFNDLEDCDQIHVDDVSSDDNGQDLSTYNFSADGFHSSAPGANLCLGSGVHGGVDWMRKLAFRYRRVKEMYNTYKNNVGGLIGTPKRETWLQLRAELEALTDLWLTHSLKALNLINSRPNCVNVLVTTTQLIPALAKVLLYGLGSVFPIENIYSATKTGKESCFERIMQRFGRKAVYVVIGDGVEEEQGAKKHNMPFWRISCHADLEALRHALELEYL
Target sequence (Q15475 whole entry, looked up): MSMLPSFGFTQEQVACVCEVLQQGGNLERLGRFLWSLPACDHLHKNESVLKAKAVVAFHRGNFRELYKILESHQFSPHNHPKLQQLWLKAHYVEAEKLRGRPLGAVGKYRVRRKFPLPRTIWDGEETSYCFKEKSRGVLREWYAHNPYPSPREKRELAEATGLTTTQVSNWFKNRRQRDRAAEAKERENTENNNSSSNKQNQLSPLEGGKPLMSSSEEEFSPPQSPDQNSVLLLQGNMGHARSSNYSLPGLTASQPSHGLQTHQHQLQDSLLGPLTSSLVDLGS
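Homogeneous AlphaScreen proximity assay pairing GST-Six1 with His-tagged Eya2 (added as 5X mix: 250 nM and 500 nM) in 50 mM Tris pH 8.0, 300 mM NaCl, 1 mM TCEP. Glutathione donor and nickel acceptor beads; 1 h, 37 °C, dark.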
Numbers without * were called inactive; nt = no result given; & = joins results of further samples.

SMILES,CtBP-E1A inh,TRPV1 PAM,TRPML1 ag,Six1-Eya2 inh,D2 PAM,TRPML1 inh
COc1ccc2oc(C(=O)OCC(=O)Nc3cc(S(=O)(=O)N4CCOCC4)ccc3OC)c(C)c2c1,3,-1,-0.3,14,9,9
CC[C@]12c3[nH]c4ccc(OC)cc4c3CCN1C(=O)C(CC(=O)NCc1ccco1)C[C@@H]2C(=O)N1CCN(C(=O)C2CC2)CC1 (stereo partly drawn),3,nt,0.0,6,-3,-2
COc1cc(/C=C/C(=O)O)ccc1OCc1ccc([N+](=O)[O-])cc1,3,14,1.2,-7,-5,18
CC[n+]1c(C)sc2cc(C)ccc21,-1,-9,0.2,1,-7,3
COc1ccccc1NC(=O)c1ccccc1NC(=O)c1cc(Cl)ccc1NC(=O)c1ccco1,-3,23,-0.6,-4,-7,2
O=C(CCn1c(=S)oc2ccccc21)NC1CCCCCCC1,2,-21,1.3,-1,-5,8
O=C(N/N=C\c1cccc(F)c1)c1ccc(-c2ccccc2)cc1,2,2,0.2,0,-1,-13
CN(C)c1ccc(C(=O)Nc2nc3c(s2)CCCC3)cc1,-24,-21,0.1,-23,-10,-11
COc1cc(NC(=O)CC(C)S(=O)(=O)c2ccc3c(c2)NC(=O)CO3)cc(OC)c1OC (stereo not drawn),-18,9,-0.2,-5,-3,4
COc1ccc(-c2nc(-c3ccccc3)no2)c(OC)c1,29,3,2.0,28,-6,8
COc1ccccc1N(CC(=O)Nc1ccc2c(c1)OCCO2)S(C)(=O)=O,3,14,-0.8,-6,3,5
O=[N+]([O-])c1ccc(N2CCOCC2)cc1,1,nt,0.0,2,-4,7
CN(C)S(=O)(=O)c1ccc(NC(=O)Cn2ccsc2=N)cc1,8,-9,-0.3,-3,-15,1
O=C(/C=C/c1ccc(OCCCF)cc1)NCc1cccc(Cl)c1,8,-19,2.0,10,-6,-13
COc1ccccc1CN(C)C(=O)c1cccc(S(=O)(=O)N2CCN(Cc3ccccc3)CC2)c1,-8,-11,1.1,-7,-6,28
CN(C)C(CN=C1NS(=O)(=O)c2ccccc21)c1ccco1 (stereo not drawn),3,-2,-0.1,0,-5,-9
CCC(c1nnnn1C(C)(C)CC)N(CCCO)Cc1cc2cc(C)cc(C)c2[nH]c1=O (stereo not drawn),0,-5,-0.5,-1,9,24
CS(=O)(=O)Nc1nnc(SCC(=O)N(c2ccccc2)c2ccccc2)s1,-4,-3,0.4,4,-4,-11
NC(=O)CSc1nnc(NC(=O)C2CC(=O)N(c3ccc(F)cc3)C2)s1 (stereo not drawn),-6,5,0.5,-1,7,-10
CN(c1ccccc1)S(=O)(=O)c1ccc2[nH]c(=O)[nH]c2c1,-1,5,1.1,5,-1,17
C=CC[C@@H](CC(=O)N[C@@H](CO)Cc1ccccc1)C(=O)NCCOC(=O)[C@@H](CC=C)CC(=O)OC(C)(C)C,nt,nt,-0.7,1,-10,-6
Cc1cc(Br)ccc1NC(=O)CNC(=O)c1ccc(-n2cncn2)c([N+](=O)[O-])c1,0,-7,0.9,-7,1,8
CC(C)(C)S(=O)(=O)Cc1nc(-c2ccc(Cl)c(Cl)c2)cs1,-1,9,2.0,6,-13,-24
Cc1cccc(OCC(=O)Nc2ccc(NC(=O)c3ccccc3)cc2)c1,18,18,0.0,3,12,-1
CCCS(=O)(=O)NC(=O)C1(C)CCCN(C(=O)c2cc(C)on2)C1 (stereo not drawn),5,nt,-0.5,12,0,nt

The closing 5 entries of the part above open the next one:
SMILES,CtBP-E1A inh,TRPV1 PAM,TRPML1 ag,Six1-Eya2 inh,D2 PAM,TRPML1 inh
C=CC[C@@H](CC(=O)N[C@@H](CO)Cc1ccccc1)C(=O)NCCOC(=O)[C@@H](CC=C)CC(=O)OC(C)(C)C,nt,nt,-0.7,1,-10,-6
Cc1cc(Br)ccc1NC(=O)CNC(=O)c1ccc(-n2cncn2)c([N+](=O)[O-])c1,0,-7,0.9,-7,1,8
CC(C)(C)S(=O)(=O)Cc1nc(-c2ccc(Cl)c(Cl)c2)cs1,-1,9,2.0,6,-13,-24
Cc1cccc(OCC(=O)Nc2ccc(NC(=O)c3ccccc3)cc2)c1,18,18,0.0,3,12,-1
CCCS(=O)(=O)NC(=O)C1(C)CCCN(C(=O)c2cc(C)on2)C1 (stereo not drawn),5,nt,-0.5,12,0,nt
COc1cc(CC(=O)OCC(=O)c2ccc(F)cc2)cc(OC)c1OC,-2,nt,-0.2,4,-4,-8
O=C1c2cccnc2C(=O)N1Cc1cccs1,-8,nt,-0.6,-10,-3,-3
COc1cccc(NC(=O)CCCn2c(=S)[nH]c3ccccc3c2=O)c1,-2,5,0.6,-4,-7,14
CC1(C)Cc2c(sc3c2c(=N)n(Cc2ccco2)c(=O)n3Cc2ccccc2)CO1,1,-24,3.4,-18,8,18
CC(CCN1CCC(CN2C(=O)C(=O)NC[C@@H]2Cc2ccccc2)CC1)c1ccccc1 (stereo partly drawn),8,nt,-0.2,9,-14,-4
C=CCc1ccc(OCC(O)CN2CCN(c3ccccc3OC)CC2)c(OC)c1 (stereo not drawn),-3,0,1.9,-3,-12,-10
COc1ccc2c(C)cc(SCC(=O)Nc3cccnc3Cl)nc2c1,-15,-12,5.1,6,-9,-3
C=CCn1c(SCC(=O)C(C)(C)C)nnc1-c1cccs1,2,-5,-0.7,4,-2,-6
CCCN(CCC)CCCNC(=O)c1cc2c(=O)[nH]c3ccccc3c2n1C,-3,1,1.0&0.5,-2,-9,24&12
CSc1cccc(NS(=O)(=O)c2cccs2)c1,11,13,0.4,5,-2,3
CCN(c1cccc(C)c1)S(=O)(=O)c1ccc2c3c(cccc13)C(=O)N2,-2,4,2.5,4,3,12
CNC(=O)c1ccc(CN(C)C(=O)c2cccc(S(=O)(=O)N3CCc4ccccc4C3)c2)cc1,0,nt,-0.5,0,-8,-13
COc1ccc(CC(=O)NCC(=O)N=Nc2c(O)[nH]c3ccccc23)cc1,0,7,-0.7,1,-7,-9
O=C(/C=C/c1cccc(F)c1)NCc1ccc2c(c1)OCO2,-12,-14,0.9,2,-5,31
Cc1ccc(-c2nc3ccccc3o2)cc1NC(=S)NC(=O)c1cc2ccccc2o1,9,1,-0.3,1,5,17
CN(C)C(=O)c1cccc(-c2ccc3nncn3c2)c1,0,nt,-0.4,26,1,nt
Cc1ccc(NC(=O)C2CCC(C(C)(C)C)CC2)cc1S(=O)(=O)N1CCOCC1 (stereo not drawn),3,nt,8.9,0,1,4
COc1cccc(NC(=O)C2CC(=O)N(Cc3ccco3)C2)c1 (stereo not drawn),0,-2,2.2,17,-1,23
CN(c1ccccc1)S(=O)(=O)c1nnc(NC(=O)c2ccco2)s1,0,6,0.6&-0.4,-4,-12,3&51
CCOC(=O)c1sc(NC(=O)c2ccoc2C)c(C(N)=O)c1C,-19,-4,-0.4,-13,-5,-4
CCOc1ccc(CN2CCC(n3nccc3NC(=O)CCCc3ccccc3)CC2)cc1,nt,9,-0.5,8,-3,4
COc1ccccc1-n1cc(CN2CCN(CC=C(C)C)C(CCO)C2)cn1 (stereo not drawn),-7,-9,1.2,4,-27,14
NC(=O)C1CCN(c2nc(-c3ccccc3)nc3ccccc23)CC1,-8,-12,-0.4,-23,-10,-11
OC(COc1ccccc1)CN1CCCC1 (stereo not drawn),4,4,2.3,11,-6,-17
CCC(=O)Nc1sc2c(c1C#N)CC(C)(CC)OC2 (stereo not drawn),-3,-6,-0.5,7,4,-2
COc1cccc(NC(=O)CN(c2ccccc2OC)S(=O)(=O)c2cccs2)c1,-6,-1,6.2,-1,3,62
Cc1ccc(NC(=O)NC2CCN(CC(=O)Nc3nccs3)CC2)cc1,11,-2,-1.6,2,-19,-5
CCn1nnnc1-c1ccc(OC)c(S(=O)(=O)Nc2ccccc2OC)c1,3,nt,-0.2,-3,-11,0
O=c1c(C(c2ccccc2)c2c(O)sc3ccccc3c2=O)c(O)sc2ccccc12,5,6,0.0,3,-3,12
CCOc1ccc(N(CC(=O)Nc2c(C)n(C)n(-c3ccccc3)c2=O)S(=O)(=O)c2ccccc2)cc1,-8,-2,0.1,0,-3,-16
COCCC(=O)N(Cc1ccc2c(c1)OCO2)C(C(=O)NC1CCCCC1)c1ccncc1 (stereo not drawn),-1,-12,-1.0,4,-7,-9
COc1cccc(C(=O)Nc2ccc(NC(=O)C(C)C)nc2)c1,8,11,-0.1,-1,-10,-17
CCCC(=O)Nc1nnc(-c2ccccc2)o1,-18,-7,-0.5,-10,-7,46
CC(=O)c1cccc(NC(=O)Nc2cccnc2)c1,-2,-8,1.4,3,-7,2
c1cc(-c2nnc3n2CCCCC3)ccn1,12,-1,0.4,4,-4,-21
CCOC(=O)c1cccc(NC(=O)c2cnccn2)c1,4,-15,-0.5,6,-6,-5
CC(C)(C)[C@H]1COC(=O)CCCC/C=C\C[C@H](CC(=O)N(CCO)Cc2ccccc2)C(=O)N1,7,nt,-0.4,1,nt,10
COc1ccc(C(=O)NNC(=O)CCC(=O)NNC(=O)c2ccc(OC)cc2)cc1,1,7,-0.4,-4,-5,18
CC(C)OC1(c2ccccc2)OC(=O)c2ccccc21 (stereo not drawn),18,-22,1.7,6,-4,-6
N/C(=N\OC(=O)c1cccc2ccccc12)c1ccc(Br)cc1,nt,-15,1.0,13,8,9
Cc1nc2cc3nc(C(F)(F)F)[nH]c3cc2[nH]1,-5,-9,-0.5,-4,2,14
O=C(Nc1ccc(Br)cc1)c1cc(-c2cccs2)on1,0,-1,0.0,-3,-11,28
c1ccc(Cn2nnnc2CN2CCCC2)cc1,3,-15,0.2,5,-16,-10
CN(C(=O)c1cccc(NC(=O)Cc2ccc(NC(=O)C3CCCN(C(=O)C4CC4)C3)cc2)c1)C1CC1 (stereo not drawn),-7,nt,0.0,4,nt,21
CCOCCCNC(=O)CCc1ccc(-n2cnc3cccnc32)cc1,0,18,-0.1,0,2,-6
CSc1nc(-c2ccc(N(C)C)cc2)c(C#N)c(=O)n1C,-17,-15,17,19,-5,3
CCc1nc(N2CCCCC2C(=O)O)c2oc3ccccc3c2n1 (stereo not drawn),9,-1,0.1,10,5,1
COc1ccc(C(=O)N/N=C/c2ccc(OC(=O)c3cccs3)cc2)cc1,6,5,0.0,-17,7,1
CC(=O)c1ccc(NC(=O)c2sc3nc4n(c(=O)c3c2C)CCCCC4)cc1,-20,-5,1.3,-13,10,-5
CCn1c(C)nc2cc(S(=O)(=O)N3CCCC3)ccc21,-1,9,-0.9,0,-12,-5
CCC1CCC/C1=N\NC(=O)c1cc(C)[nH]n1 (stereo not drawn),5,7,-0.6,0,0,-6
Cc1cccc(CC(=O)NC2CCCCCC2)c1,nt,-16,nt,2,-7,nt

Assay outcomes from PubChem.

The order is random. Share with any hit: about 0.95%.
